# Mtb MbtI inh = inhibitors of Mycobacterium tuberculosis siderophore enzyme MbtI; P9WFX0; purified MbtI enzyme, fluorescence intensity read-out; inhibition, %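 (about 17 µg/mL by stock and volumes)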; 100,000 tested, 0.89% active; AID 493033;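 active = above 50% in both replicates, above 80% if mildly self-fluorescent; inactive = the rest, strongly fluorescent compounds included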;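 also: 0% = mean of negative and 100% = mean of positive controls; one replicate is shown; some compounds called inactive have numbers as strong as hits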
# PV pol inh = poliovirus RNA polymerase inhibition; 150,000 tested, 0.66% active; P03300; AID 588519; % elongation, % (compound at 16.7 µg/mL); poliovirus polymerase elongation, fluorescence polarization; stronger effect = lower value; in the data active = % elongation below about 90%; also: some results filed as inactive read as strong as hits
# Target sequence (P03300 1749-2209 limits assumed): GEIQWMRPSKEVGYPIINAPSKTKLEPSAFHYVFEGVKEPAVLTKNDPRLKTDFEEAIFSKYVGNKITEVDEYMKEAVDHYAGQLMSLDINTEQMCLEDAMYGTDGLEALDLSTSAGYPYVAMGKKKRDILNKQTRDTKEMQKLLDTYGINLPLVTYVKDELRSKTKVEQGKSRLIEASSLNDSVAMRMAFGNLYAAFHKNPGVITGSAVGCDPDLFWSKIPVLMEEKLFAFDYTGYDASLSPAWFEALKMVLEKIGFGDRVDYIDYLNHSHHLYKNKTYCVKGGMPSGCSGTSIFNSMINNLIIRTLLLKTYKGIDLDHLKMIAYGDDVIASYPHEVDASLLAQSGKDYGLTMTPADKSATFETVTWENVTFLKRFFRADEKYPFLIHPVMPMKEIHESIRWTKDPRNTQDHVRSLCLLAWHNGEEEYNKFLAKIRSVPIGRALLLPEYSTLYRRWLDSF
# Mtb MenB inh = inhibitors of Mycobacterium tuberculosis MenB enzyme; P9WNP5; MenB enzyme assay, absorbance read-out; some hits fall short of the stated cut; inhibition, %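 (about 12 µg/mL by stock and volumes)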; 100,000 tested, 0.43% active;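 active = mean of two replicates above 30%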;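 also: 0% = no compound and 100% = wells with inactive enzyme; the first replicate is given; strong numbers were not always called active; inactives centre near -10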
# Target sequence (P9WNP5 whole entry, looked up): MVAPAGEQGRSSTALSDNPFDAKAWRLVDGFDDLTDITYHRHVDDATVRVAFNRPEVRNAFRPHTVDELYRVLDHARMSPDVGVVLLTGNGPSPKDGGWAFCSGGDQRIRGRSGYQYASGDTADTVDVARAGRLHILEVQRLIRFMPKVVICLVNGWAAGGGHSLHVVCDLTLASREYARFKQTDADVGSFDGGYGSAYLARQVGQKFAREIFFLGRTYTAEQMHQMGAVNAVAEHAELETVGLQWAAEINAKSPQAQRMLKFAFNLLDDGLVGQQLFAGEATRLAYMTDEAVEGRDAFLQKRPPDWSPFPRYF
# PV pol inh intensity = also measured in PV pol inh; calls as there; % elongation; measured here: total intensity read-out; formula for this scale not given here;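 total fluorescence in place of polarization; lower means less elongation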
# The depositor's hits bear a star; / = no result given.
SMILES,Mtb MbtI inh,PV pol inh,PV pol inh intensity,Mtb MenB inh
O=C1NCCCCC1NS(=O)(=O)c1cc(S(=O)(=O)c2ccccc2)cs1 (stereo not drawn),15.5,103.0,106.0,-6.8
CC(C)(C)c1ccc(/C=C/C(=O)Nc2ncccn2)cc1,19.2,101.0,103.0,-31.1
CCn1cc(NC(=O)NCC2COc3ccccc3O2)c(=O)c2ccc(C)nc21 (stereo not drawn),-16.4,102.0,100.0,-6.2
Cc1ccc(SCC(=O)Nc2nncs2)cc1,-1.6,105.0,106.0,-19.3
Nc1ccc(Br)cc1C(=O)c1ccccc1,3.2,101.0,102.0,-49.2
S=C(NCc1cccs1)N1CCN(c2ncccn2)CC1,-5.1,99.0,96.0,-9.7
CNC(=O)CN1CCNCC1,-13.5,102.0,108.0,-1.6
CCc1nnc(SCC(=O)N(CC)Cc2ccccc2)c2cc3occc3n12,-22.5,102.0,102.0,4.1
Cc1cccc(OCCn2cnc3c(cnn3C)c2=O)c1,-1.3,102.0,104.0,6.3
COC(=O)C(NS(=O)(=O)c1ccc(N2CCCC2=O)cc1)c1ccccc1 (stereo not drawn),/,109.0,83.0,-45.8
COC(=O)C1=C(C(=O)c2ccccc2)C(c2ccccc2)n2ncnc2N1 (stereo not drawn),4.6,102.0,101.0,-52.7
O=C(COC(=O)COc1ccccc1F)NC1CC1,-8.9,102.0,105.0,/
CCCc1nc2ccccc2c(=O)n1-c1ccccc1,-4.0,101.0,102.0,25.5
COc1ccc(OC)c(NC(=O)CCc2c(C)nc3c(c(C)nn3C)c2C)c1,3.4,103.0,104.0,-11.6
O=C(O)CCc1cc(Cl)no1,/,102.0,93.0,3.3
CC(C)NC(=O)C1CN(S(=O)(=O)c2ccccc2)CCN1S(=O)(=O)c1ccccc1 (stereo not drawn),/,113.0,115.0,0.9
Nc1nc2n[nH]nc2c(=O)[nH]1,4.3,98.0,97.0,4.8
N#Cc1cccc(Nc2c3c(nc4ccccc24)CCC3)c1,116.5,99.0,102.0,-19.1
Cc1ccc(S(=O)(=O)N(CCC(=O)O)Cc2ccccc2)cc1,3.6,101.0,99.0,3.2
CC(C)C(=O)Nc1nc2c(ncn2C2OC(CO)C(O)C2O)c(=O)[nH]1 (stereo not drawn),-7.2,103.0,102.0,2.3
Cc1cc(C(F)(F)F)nc(Sc2nc(C)cc(C)c2C#N)n1,3.3,102.0,103.0,-22.2
O=C(Nc1ccccc1)N1CCc2c([nH]c3ccccc23)C1C(F)(F)F (stereo not drawn),1.9,103.0,103.0,-7.5
O=S1(=O)C=CC(Nc2cccc3ccccc23)C1 (stereo not drawn),-11.8,99.0,103.0,-5.9
[O-][n+]1ccccc1OCc1ccc(Cl)cc1,14.9,101.0,100.0,-14.7
O=S(=O)(Nc1ccc(CN2CCCCC2)cc1)c1ccc(-n2cccn2)cc1,-17.2,100.0,103.0,-10.4

# Record cards, as listed above. Values in the order: Mtb MbtI inh, PV pol inh, PV pol inh intensity, Mtb MenB inh
# N#Cc1cccc(Nc2c3c(nc4ccccc24)CCC3)c1 is listed as 116.5, 99.0, 102.0, -19.1
# O=S(=O)(Nc1ccc(CN2CCCCC2)cc1)c1ccc(-n2cccn2)cc1 is listed as -17.2, 100.0, 103.0, -10.4

# Further results follow:
SMILES,Mtb MbtI inh,PV pol inh,PV pol inh intensity,Mtb MenB inh
CCc1ccccc1NC(=O)N1CCN2CCCCC2C1 (stereo not drawn),-23.6,103.0,103.0,4.3
CC(=O)Nc1ccc(S(=O)(=O)NCc2cccn2Cc2ccc(F)cc2)cc1,-21.5,99.0,104.0,-7.7
O=C(CCCn1c2ccccc2c2cn[nH]c(=O)c21)NCCc1ccccc1,21.6,104.0,104.0,-12.2
COc1cc(C(F)(F)F)nc2ccc(C)c(NC(=O)c3ccc(Cl)cc3)c12,-1.7,102.0,109.0,-7.2
O=C(CCCC(=O)Oc1ccccc1F)Nc1cccc2ccccc12,/,103.0,108.0,-4.9
COc1ccc(OCCC(=O)NCc2ccccc2)cc1,-7.8,99.0,102.0,-22.6
CC(C)Sc1nnc(Cc2cc(=O)[nH]c(=O)[nH]2)n1-c1ccc(F)cc1,9.1,100.0,102.0,-6.1
O=C1NCCN1CCNS(=O)(=O)c1cccc2cccnc12,-3.4,102.0,102.0,-2.8
COC(=O)c1ccccc1NC(=O)COc1ccc2oc(-c3ccco3)cc(=O)c2c1,-15.1,102.0,101.0,-3.2
Cn1c(O)c(Cc2c[nH]c3ccccc23)c(=O)n(C)c1=O,-17.0,92.0,99.0,-36.4
CCOC(=O)Cc1csc(SCC(=O)/C(C#N)=C(\C)N)n1,10.7,102.0,102.0,-55.8
OC1CCN(CC2CC=CCC2)CC1 (stereo not drawn),-2.3,100.0,102.0,-17.9
C/C(=C/C(=O)C(F)(F)F)N1CCN(S(=O)(=O)c2cccc(Cl)c2)CC1,0.1,104.0,106.0,-8.4
O=C(Cn1cc(/C=C2/C(=O)Nc3ccccc32)c2ccccc21)NCC1CCCO1 (stereo not drawn),7.8,94.0,123.0,-101.0
COCCOC(=O)C1=C(N)C(C(=O)Nc2cccc(C#N)c2)SC1=Nc1ccc(C)cc1C (stereo not drawn),-47.8,103.0,107.0,-47.1
CN1CCN(C(=O)c2ccc3c(c2)S(=O)(=O)c2ccccc2C3=O)CC1,3.0,103.0,104.0,-28.7
O=C(NC(=S)NC12CC3CC(CC(C3)C1)C2)c1ccccc1,0.7,100.0,104.0,15.9
CC(CCNS(=O)(=O)c1ccc(-c2cc(C(F)(F)F)no2)s1)N1CCCCCC1 (stereo not drawn),-15.0,103.0,102.0,-13.2
CCOC1CSc2sc(=S)sc2S1 (stereo not drawn),42.8,96.0,98.0,-32.4
CCCN(CC(=O)Nc1ccccc1C)C(=O)CSc1nnc2ccccn12,81.7,103.0,108.0,-3.9
Cc1sc2c(c1C)-c1nc(SCC(=O)C(C)(C)C)ncc1S(=O)(=O)N2C,-4.5,100.0,102.0,-23.9
CCC1CCc2nc3sc(C(=O)Nc4cc(Cl)ccc4OC)c(N)c3cc2C1 (stereo not drawn),14.5,100.0,103.0,1.5
Cc1ccc(/C=C2/C(=O)/C(=C/c3ccc(C)o3)C3CCC2N3C)o1,58.5,71.0,199.0,-137.9
Oc1ccc(CNc2ccccc2C(F)(F)F)c2cccnc12,14.4,101.0,107.0,-84.4
CCN1C(=O)c2ccccc2S(=O)c2ccc(C(=O)N(C)C3CCCCC3)cc21 (stereo not drawn),-5.5,100.0,103.0,-12.8

# 21 entries from above, with values under each structure:
# The line under a structure holds: Mtb MbtI inh	PV pol inh	PV pol inh intensity	Mtb MenB inh
Nc1ccc(Br)cc1C(=O)c1ccccc1
    3.2	101.0	102.0	-49.2
S=C(NCc1cccs1)N1CCN(c2ncccn2)CC1
    -5.1	99.0	96.0	-9.7
CNC(=O)CN1CCNCC1
    -13.5	102.0	108.0	-1.6
CCc1nnc(SCC(=O)N(CC)Cc2ccccc2)c2cc3occc3n12
    -22.5	102.0	102.0	4.1
Cc1cccc(OCCn2cnc3c(cnn3C)c2=O)c1
    -1.3	102.0	104.0	6.3
COC(=O)C(NS(=O)(=O)c1ccc(N2CCCC2=O)cc1)c1ccccc1 (stereo not drawn)
    /	109.0	83.0	-45.8
COC(=O)C1=C(C(=O)c2ccccc2)C(c2ccccc2)n2ncnc2N1 (stereo not drawn)
    4.6	102.0	101.0	-52.7
O=C(COC(=O)COc1ccccc1F)NC1CC1
    -8.9	102.0	105.0	/
CCCc1nc2ccccc2c(=O)n1-c1ccccc1
    -4.0	101.0	102.0	25.5
COc1ccc(OC)c(NC(=O)CCc2c(C)nc3c(c(C)nn3C)c2C)c1
    3.4	103.0	104.0	-11.6
O=C(O)CCc1cc(Cl)no1
    /	102.0	93.0	3.3
CC(C)NC(=O)C1CN(S(=O)(=O)c2ccccc2)CCN1S(=O)(=O)c1ccccc1 (stereo not drawn)
    /	113.0	115.0	0.9
Nc1nc2n[nH]nc2c(=O)[nH]1
    4.3	98.0	97.0	4.8
N#Cc1cccc(Nc2c3c(nc4ccccc24)CCC3)c1
    116.5	99.0	102.0	-19.1
Cc1ccc(S(=O)(=O)N(CCC(=O)O)Cc2ccccc2)cc1
    3.6	101.0	99.0	3.2
CC(C)C(=O)Nc1nc2c(ncn2C2OC(CO)C(O)C2O)c(=O)[nH]1 (stereo not drawn)
    -7.2	103.0	102.0	2.3
Cc1cc(C(F)(F)F)nc(Sc2nc(C)cc(C)c2C#N)n1
    3.3	102.0	103.0	-22.2
O=C(Nc1ccccc1)N1CCc2c([nH]c3ccccc23)C1C(F)(F)F (stereo not drawn)
    1.9	103.0	103.0	-7.5
O=S1(=O)C=CC(Nc2cccc3ccccc23)C1 (stereo not drawn)
    -11.8	99.0	103.0	-5.9
[O-][n+]1ccccc1OCc1ccc(Cl)cc1
    14.9	101.0	100.0	-14.7
O=S(=O)(Nc1ccc(CN2CCCCC2)cc1)c1ccc(-n2cccn2)cc1
    -17.2	100.0	103.0	-10.4

# Next records follow:
SMILES,Mtb MbtI inh,PV pol inh,PV pol inh intensity,Mtb MenB inh
O=C1C(=O)N(CCCn2ccnc2)C(c2cccc(Br)c2)/C1=C(\O)c1ccccc1 (stereo not drawn),-13.6,102.0,106.0,0.1
NC(=O)Cc1ccc(NC(=O)CCC(=O)O)cc1,/,105.0,105.0,-2.1
COCC(C)n1c(C)cc(C(=O)COC(=O)c2ccc3ncsc3c2)c1C (stereo not drawn),-28.3,95.0,95.0,-11.1
Cc1[nH]c2ccccc2c(=O)c1Cc1c(C)[nH]c2ccccc2c1=O,-1.0,102.0,102.0,-11.2
CC1(C)CC(=O)C(/C=N/n2cnc3ccccc3c2=O)=C(O)C1,4.8,98.0,102.0,-37.6
N#Cc1cc(C(=O)c2ccccc2O)cn(-c2ccccn2)c1=O,-6.8,122.0,171.0,-9.6
S=C(NC1CCCCC1)NN1CCOCC1,/,100.0,104.0,-1.6
